YopH inh = YopH tyrosine phosphatase inhibitors, primary screen, biochemical, fluorescence Ex485/Em525; YopH tyrosine phosphatase [Yersinia enterocolitica]; inhibition, %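 (about 10 µM by stock and volumes)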; 140,000 tested, 0.16% active;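 active means inhibition of 50% or more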;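 further: controls were vehicle for no effect and minimum signal wells for full effect; inactives centre near -20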
Mtb betalactam = beta-lactam sensitization of Mtb H37Rv, H37Rv | 330,000 tested, 0.27% active | inhibition, % at 25 µM | M. tuberculosis H37Rv growth with meropenem, percent inhibition; hits of this screen are not shown here | AID 434955, 2010;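 active means about 74% or more and at least 40 points above the plate without the antibiotic, then above 30% in a dose series; inconclusive means first-round hits that could not be retested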;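 further: growth measured after seven days incubation then overnight dye step; 0% = bacteria only wells and 100% = bacteria with antibiotic; twin plates without the antibiotic show which effects depend on it; some results filed as inactive read as strong as hits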
RecA splice inh = Mtb RecA intein splicing inhibitors, primary screen, biochemical, fluorescence, HTS | Protein RecA (Mycobacterium tuberculosis (strain ATCC 25618 / H37Rv)), P9WHJ3 | AID 2221, 2009 | 290,000 tested, 0.75% active | cell-free RecA intein splicing | inhibition, %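 (about 9 µM by stock and volumes)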; in the data active means inhibition above about 30%; inconclusive means no clear call, values can overlap the other calls;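 further: 0% = vehicle wells and 100% = reference inhibitor control wells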
Target sequence (P9WHJ3 whole entry, looked up, canonical isoform): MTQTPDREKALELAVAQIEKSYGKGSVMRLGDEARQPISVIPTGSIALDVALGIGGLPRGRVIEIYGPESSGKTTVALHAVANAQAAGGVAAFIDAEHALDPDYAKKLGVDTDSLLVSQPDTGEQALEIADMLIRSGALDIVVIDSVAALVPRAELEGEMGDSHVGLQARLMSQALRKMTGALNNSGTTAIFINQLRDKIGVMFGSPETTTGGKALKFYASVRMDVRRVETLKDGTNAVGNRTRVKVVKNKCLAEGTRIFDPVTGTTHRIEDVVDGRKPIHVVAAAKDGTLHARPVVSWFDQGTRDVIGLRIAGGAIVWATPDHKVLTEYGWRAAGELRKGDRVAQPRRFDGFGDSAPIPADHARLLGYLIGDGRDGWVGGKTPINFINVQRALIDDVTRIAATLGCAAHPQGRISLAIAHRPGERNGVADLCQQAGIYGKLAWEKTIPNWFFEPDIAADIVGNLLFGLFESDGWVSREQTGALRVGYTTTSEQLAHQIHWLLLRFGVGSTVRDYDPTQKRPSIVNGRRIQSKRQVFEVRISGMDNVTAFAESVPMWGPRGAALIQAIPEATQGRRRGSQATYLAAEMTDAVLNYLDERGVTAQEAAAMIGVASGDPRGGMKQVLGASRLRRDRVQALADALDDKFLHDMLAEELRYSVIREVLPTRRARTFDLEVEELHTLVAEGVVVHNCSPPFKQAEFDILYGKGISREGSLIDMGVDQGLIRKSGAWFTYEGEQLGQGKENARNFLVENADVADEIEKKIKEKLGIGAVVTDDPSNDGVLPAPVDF
Mtb growth = M. tuberculosis H37Rv growth inhibitors, H37Rv strain (AID 1626) | 220,000 tested, 0.95% active | one-dose inhibition, % at 10 µM; IC50 in µM for titrated hits | M. tuberculosis H37Rv growth inhibition; higher % means a stronger effect;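 active means confirmed in a dose series; inconclusive means inhibition above 80% but not taken into the dose series; inactive means below 80% or under 30% at every dose of the series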;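 further: bacteria incubated seven days before Alamar blue readout; 0% = bacteria only wells and 100% = bacteria with antibiotic wells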
Arbovirus inh = antivirals against arbovirus infection, primary screen, cell-based, full library, 10K replicate subset; arbovirus infection cell-based antiviral screen; inhibition, % at 10 µM; 200,000 tested, 0.37% active;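 active means inhibition from about 30%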;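 further: bluetongue infection of BSR cells; cell survival read as ATP light after 72 h; 0% = infected wells without compound and 100% = uninfected wells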
Arbovirus inh repeat = recorded beside Arbovirus inh, whose call it bears; inhibition, %; measured here: 10K subset replicate screen; many hits read low in the repeat;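 first of two repeat runs on a subset; 0% = infected and 100% = uninfected wells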
* hit, by the source's call; ? = inconclusive; · = no result given. The list is partial; count on the stated rates, not on these rows.

SMILES	YopH inh	Mtb betalactam	RecA splice inh	Mtb growth	Arbovirus inh	others
CCN(CC)CC(=O)NC1CC(C)(C)Cc2c1cnn2-c1ccc(F)cc1 (centres undefined)	·	-3	-0.3	·	·
CCN(Cc1ccccc1)C(=O)c1ccc(CS(=O)c2ccccc2C)o1 (centres undefined)	·	-6	0.2	·	·
COc1ccccc1NC(=O)COC(=O)C1CC2C=CC1C2 (centres undefined)	·	-1	2.4	-8%	23
Cc1ccc2nc(/C(C#N)=C\c3cc(C)n(-c4cccc([N+](=O)[O-])c4)c3C)[nH]c2c1	-23	97	2.1	35%	-21
COc1ccc2c(c1)C(=NNC(=O)c1ccccn1)c1cc(OC)ccc1-2	-7	-2	-2.2	1%	3
CCOC(=O)CSC1=C(C#N)C(c2ccc3c(c2)OCO3)CC(=O)N1 (centres undefined)	-34	-5	-179	-13%	-18
O=C(NC1CCN(C(=O)Nc2cccc(F)c2)CC1)c1ccco1	·	-5	-2.1	·	·
COCCN1CN=C(Nc2nc3ccccc3s2)NC1	-36	0	-1.5	-8%	2
Cc1ccc(NC(=O)CCC(=O)Nc2nnc(C3CCCCC3)s2)cc1	·	0	2.3	·	·
O=C(CCCCCn1nnc2ccccc2c1=O)N[C@H](C(=O)O)c1ccccc1	·	-2	1.7	-8%	·
O=C(C1CCCCN1S(=O)(=O)c1ccccc1)N1CCN(Cc2ccccc2)CC1 (centres undefined)	12	-6	-1.3	-3%	-7
CCn1c(SCC(=O)c2ccccc2)nnc1-c1ccoc1C	-38	-8	-0.5	-10%	3
CC(C)Cc1nc2oc3c(NCCCN4CCOCC4)ncnc3c2c2c1CCC2	-12	-10	-0.9	11%	-16
COc1ccccc1C1N(c2ccc(F)cc2)C(=O)C2CCCN21 (centres undefined)	-10	-1	-0.1	-3%	-1
COc1cccc(-c2nc3ccccc3c(=O)n2NC(=O)c2cccnc2Cl)c1	-23	-5	0.7	-5%	2
CC1=C(C(N)=O)C(c2cccc(O)c2)n2nc(CCCO)nc2N1 (centres undefined)	-18	-1	-1.4	-10%	1	Arbovirus inh repeat=-2
Cc1ccc(CCNC(=O)C2CCN(S(=O)(=O)N3CCCC3)CC2)cc1	-14	0	1.1	10%	5
COc1ccc(CN(C)CC(O)COc2ccc(-c3ccccc3)cc2)cc1OC (centres undefined)	·	12	-0.6	·	·
O=C(NCCCSc1ccccc1)c1cccnc1	·	2	-3.4	·	·
CCn1cc(C2=NC(c3ccccc3)CO2)c2ccccc21 (centres undefined)	-14	-5	2.4	11%	-3	Arbovirus inh repeat=-7
CCOc1ccc2nc(NC3=NC(c4ccc(OC)cc4)CC(=O)N3)nc(C)c2c1 (centres undefined)	-15	21	5.9	7%	-30
Cc1ccc(CSCCNC(=O)CSc2ccccc2)cc1	-20	-2	-1.0	-3%	2
Cc1nn(CC(=O)Nc2c(C)n(C)n(-c3ccccc3)c2=O)c(C)c1[N+](=O)[O-]	·	-4	-11	0%	17
O=C(Nc1ccc(N2CCN(C(=O)c3cccs3)CC2)cc1)c1ccc(F)cc1	·	2	10	·	·
S=C(Nc1ccccc1)N1CCN(C2CCCCC2)CC1	-36	-4	-1.5	-3%	9

Taken from the results shown for reference:
SMILES	YopH inh	Mtb betalactam	RecA splice inh	Mtb growth	Arbovirus inh	others
CCN(CC)CC(=O)NC1CC(C)(C)Cc2c1cnn2-c1ccc(F)cc1 (centres undefined)	·	-3	-0.3	·	·
CCN(Cc1ccccc1)C(=O)c1ccc(CS(=O)c2ccccc2C)o1 (centres undefined)	·	-6	0.2	·	·

Back to the main list, repeating the 3 entries before the break.
SMILES	YopH inh	Mtb betalactam	RecA splice inh	Mtb growth	Arbovirus inh	others
Cc1nn(CC(=O)Nc2c(C)n(C)n(-c3ccccc3)c2=O)c(C)c1[N+](=O)[O-]	·	-4	-11	0%	17
O=C(Nc1ccc(N2CCN(C(=O)c3cccs3)CC2)cc1)c1ccc(F)cc1	·	2	10	·	·
S=C(Nc1ccccc1)N1CCN(C2CCCCC2)CC1	-36	-4	-1.5	-3%	9
CC(C)CN(C(=O)c1ccc(-n2cncn2)c([N+](=O)[O-])c1)C1CCS(=O)(=O)C1 (centres undefined)	·	-11	-3.9	·	·
Cc1cccc(N2CCN(S(=O)(=O)c3c(C)[nH]c(C)c3C(=O)N3CCCCC3)CC2)c1C	·	-2	7.3	·	·
Cc1ccc(-c2nn3cnnc3c3ccccc23)cc1	·	9	2.2	-8%	-6
CCCCNC(=O)C1CCN(S(=O)(=O)N2CCOCC2)CC1	·	-4	-5.0	-11%	0
CN(C(=O)c1nn(C)c2c1CSc1ccccc1-2)c1ccccc1Cl	·	10	-1.5	·	·
O=C(c1cc2ccccn2n1)N1CCN(c2cccc(C(F)(F)F)c2)CC1	-44	-4	-7.3	-6%	-3
CCOc1ccc(NC(=O)CN2CCN(CC(=O)Nc3ccc(C(=O)OC)cc3)CC2)cc1	-17	11	-0.4	11%	-1
O=C(Cn1nc(C(=O)O)c2ccccc2c1=O)Nc1nc(-c2ccccc2)cs1	·	-1	1.3	-5%	·
Cc1cc(Nc2cccc(C)c2C)n2ncnc2n1	-30	3	0.5	·	-8	Arbovirus inh repeat=-5
CN(CC1CCOCC1)C(=O)CC1C(=O)NCCN1Cc1ccccc1F (centres undefined)	·	-5	2.8	·	·
COc1ccc(-c2nnc(SCC(=O)Nc3ccc4c(c3)OCCO4)n2N)cc1OC	-23	8	-3.1	-9%	13
COc1ccccc1N/C(=N/S(=O)(=O)c1ccc(Cl)cc1)c1ccccc1	-42	3	-0.2	3%	4
CCn1nc(C(=O)NNC(=O)CCOc2cc(C)ccc2C)c2ccccc2c1=O	·	-11	0.3	·	·
Cc1cccc(NS(=O)(=O)c2ccc3[nH]c(=O)cc(C(=O)OC(C)C(=O)Nc4ccc([N+](=O)[O-])cc4)c3c2)c1 (centres undefined)	·	0	8.9	-5%	4
C=CCNC(=O)c1c(CSc2ccc(Cl)cc2)noc1C(=O)NCCC	·	20	3.6	15%	·
COc1ccc(/C=C/C(=O)Nc2cc(C)nn2-c2nc3ccccc3n2Cc2cccc([N+](=O)[O-])c2)cc1	3	-1	-2.1	9%	-12
CCC1CCc2sc(C(=O)NC3CCN(Cc4ccccc4)CC3)cc2C1 (centres undefined)	·	73	6.4	·	·
CCC(=O)n1nc(-c2ccc(Cl)cc2)nc1SC	3	3	21	·	-6
CS(=O)(=O)c1ccccc1C(=O)Nc1ccc(-c2nc3ccccc3o2)cc1	·	6	-1.9	·	·
O=c1c2ccccc2nc(-c2ccccc2)n1-c1cccnc1	-39	-5	-1.6	-17%	-2
COC(=O)c1cscc1NC(C)=O	-21	-7	-0.5	-7%	4
Cc1cc(C)cc(-c2nnc(SCc3ccc(C(=O)O)cc3)o2)c1	·	6	6.6	-1%	5
Cc1ccccc1Oc1ccccc1N	·	-1	-3.0	8%	4
Cc1cc(C(=O)N2CCC(C)CC2)on1	·	-7	-0.6	-7%	·
COC1CCN(C(=O)CC2C(=O)NCCN2CC(C)(C)C)CC1 (centres undefined)	·	-9	-3.5	2%	1

Retrieved by structure from the list above (5):
SMILES	YopH inh	Mtb betalactam	RecA splice inh	Mtb growth	Arbovirus inh	others
Cc1ccc(CCNC(=O)C2CCN(S(=O)(=O)N3CCCC3)CC2)cc1	-14	0	1.1	10%	5
COC1CCN(C(=O)CC2C(=O)NCCN2CC(C)(C)C)CC1 (centres undefined)	·	-9	-3.5	2%	1
CCC(=O)n1nc(-c2ccc(Cl)cc2)nc1SC	3	3	21	·	-6
Cc1ccccc1Oc1ccccc1N	·	-1	-3.0	8%	4
O=C(Nc1ccc(N2CCN(C(=O)c3cccs3)CC2)cc1)c1ccc(F)cc1	·	2	10	·	·

Later entries.
SMILES	YopH inh	Mtb betalactam	RecA splice inh	Mtb growth	Arbovirus inh	others
Clc1ccc(OC2CCN(Cc3nc(CC4CC4)no3)CC2)cc1	·	1	1.9	0%	8
CC(=O)N=c1sc2cc(C)ccc2n1C	-14	0	-1.1	-9%	0
Cc1ccccc1-c1nc2ccccc2[nH]1	-18	17	-2.2	-5%	-1
CCCCn1c(CNC(=O)Cc2ccccc2)nc2ccccc21	2	-2	-5.8	44%	-2
CC(C)OC(=O)c1cccnc1SCC(=O)N(C)c1ccccc1	12	2	2.6	0%	5
Cc1nccc(-c2ccc(-n3cnc4ccccc43)cc2)n1	-24	2	3.3	9%	2
Cc1ccc(CC(=O)OCC(=O)NC2CCCC(C)C2C)cc1C (centres undefined)	-8	-2	3.7	4%	5
CCOC(=O)C1(CCCc2ccccc2)CCN(C(=O)C2CCCN(C(N)=O)C2)CC1 (centres undefined)	·	-8	·	2%	1
O=C(NN1C(=O)C2C3C=CC(C3)C2C1=O)C(O)c1ccccc1 (centres undefined)	·	2	-0.9	-1%	4
Cn1c(=NC(=O)CCS(=O)(=O)c2ccccc2)sc2cc(F)ccc21	·	-9	-1.7	·	·
COc1cc(C)c(NC(=O)Cc2ccsc2)cc1OC	·	-2	-5.4	·	·
CC(=O)Nc1ccc(S(=O)(=O)N2CCC(C(=O)NCCC(=O)NCc3ccccc3)CC2)cc1	·	-4	-1.1	·	·
O=c1cnnc(Nc2cccc(C(F)(F)F)c2)[nH]1	·	-4	4.5	5%	2
O=C(CSc1nncn1-c1ccccc1)NC1CCCCC1	·	-7	-2.7	1%	10
Cc1cc(OCc2cc(C(=O)NCc3cc(C(C)C)no3)no2)cc(C)c1Cl	·	?	-1.4	·	·
COc1cc(C)c(S(=O)(=O)NCCCn2ccnc2)cc1C	·	-3	-0.8	·	·
Cc1cc(C(=O)N/N=C/c2c(C)nn(-c3ccccc3)c2C)n[nH]1	·	-5	1.7	0%	·
Cc1ccc(C)c(NS(=O)(=O)c2ccc(-c3ccc(=O)[nH]n3)o2)c1	·	6	-1.1	·	·
Cc1c(NC(=O)C(CC(=O)O)NCc2ccco2)c(=O)n(-c2ccccc2)n1C (centres undefined)	18	·	-0.7	-2%	2
CS(=O)(=O)N1CCCC(C(=O)Nc2ccccc2F)C1 (centres undefined)	·	1	0.1	·	·
O=C(NCc1ccccc1)C(=O)NCC1OCCN1S(=O)(=O)c1ccc2c(c1)OCCO2 (centres undefined)	-37	-4	0.8	2%	-3
CCOc1ccc(S(=O)(=O)N2CCOCC2)cc1[N+](=O)[O-]	·	-6	-3.6	-7%	3
C=CCOC(=O)C1=C(C)NC(=O)NC1/C=C/c1ccccc1 (centres undefined)	-41	-6	-0.2	-11%	-4	Arbovirus inh repeat=-4
CCN(CC)C(=O)c1sc(N)c(C#N)c1C	2	4	-6.5	2%	1
COC(=O)CCC(=O)Nc1ccc(S(=O)(=O)Nc2nc(C)cc(C)n2)cc1	·	7	-0.7	·	·

Filtered by structure: the entries above containing an NH in an aromatic ring
SMILES	YopH inh	Mtb betalactam	RecA splice inh	Mtb growth	Arbovirus inh	others
Cc1ccc2nc(/C(C#N)=C\c3cc(C)n(-c4cccc([N+](=O)[O-])c4)c3C)[nH]c2c1	-23	97	2.1	35%	-21
Cc1cccc(N2CCN(S(=O)(=O)c3c(C)[nH]c(C)c3C(=O)N3CCCCC3)CC2)c1C	·	-2	7.3	·	·
Cc1cccc(NS(=O)(=O)c2ccc3[nH]c(=O)cc(C(=O)OC(C)C(=O)Nc4ccc([N+](=O)[O-])cc4)c3c2)c1 (centres undefined)	·	0	8.9	-5%	4
Cc1ccccc1-c1nc2ccccc2[nH]1	-18	17	-2.2	-5%	-1
O=c1cnnc(Nc2cccc(C(F)(F)F)c2)[nH]1	·	-4	4.5	5%	2
Cc1cc(C(=O)N/N=C/c2c(C)nn(-c3ccccc3)c2C)n[nH]1	·	-5	1.7	0%	·
Cc1ccc(C)c(NS(=O)(=O)c2ccc(-c3ccc(=O)[nH]n3)o2)c1	·	6	-1.1	·	·

Continuation.
SMILES	YopH inh	Mtb betalactam	RecA splice inh	Mtb growth	Arbovirus inh	others
COC(=O)c1ccc(N(CC(=O)NC2CCCC2)C(=O)c2ccc(C)s2)cc1	·	7	3.7	·	·
COc1ccc(CNS(=O)(=O)CCNC(=O)c2cccc(OC)c2)cc1	·	1	1.0	·	·
CCn1c(-c2ccc(Cl)cc2)n[nH]c1=S	-11	-14	-0.6	-1%	5
CC(O)CNc1nc2ccccc2n1CC(=O)NC12CC3CC(CC(C3)C1)C2 (centres undefined)	·	-8	1.0	1%	12
Cc1nc2c(c(C)nn2-c2ccccc2)c(C)c1C	·	2	-0.2	·	·
COc1ccc(CN2CCCC(N3CCN(c4ccc(OC)cc4)CC3)C2)cc1 (centres undefined)	·	-5	-8.5	·	·
CC(=O)c1ccc(NC(=O)CCNS(=O)(=O)c2cccc3nonc23)cc1	-22	?	1.7	-9%	0
Cc1cc(C(=O)Nc2cccnc2)cs1	-123	-5	-1.0	2%	-5
O=C(N/N=C\c1ccc(Cl)s1)c1ccc(Cn2cccn2)o1	-22	-5	-2.4	4%	-18
